Screening data as filed in PubChem BioAssay.
Menin MLL FP FL – inhibitors of human menin-MLL interaction, wild-type MLL peptide; Fluorescence polarization, fluorescein-MLL peptide displacement from menin; FP activity change, % at 61.4 µM; 290,000 tested, under 10 active; AID 1766; inconclusive = falling polarisation curve, or a change in total fluorescence; inactive = total fluorescence flat and polarisation flat or rising; no compound was filed as active; the % refers to the polarisation; negative = inhibition;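 further: % of control where 0% means no effect; inhibitors lower the polarisation; unlabelled MLL peptide was the positive control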
TRPV1 potentiator – human TRPV1 potentiation; Q8NER1; hit rate 0.02% among 320,000; TRPV1-expressing cells, Fluo-8 calcium influx, capsaicin EC20 potentiation; host cell line not named in the record; control for the full effect not named in the record; AID 540277; potentiation, % at 8.33 µM; active means potentiation above 80%; inconclusive means 30% to 80%; inactive means below 30%; further: 0% is about no effect
Target sequence (Q8NER1 whole entry, looked up): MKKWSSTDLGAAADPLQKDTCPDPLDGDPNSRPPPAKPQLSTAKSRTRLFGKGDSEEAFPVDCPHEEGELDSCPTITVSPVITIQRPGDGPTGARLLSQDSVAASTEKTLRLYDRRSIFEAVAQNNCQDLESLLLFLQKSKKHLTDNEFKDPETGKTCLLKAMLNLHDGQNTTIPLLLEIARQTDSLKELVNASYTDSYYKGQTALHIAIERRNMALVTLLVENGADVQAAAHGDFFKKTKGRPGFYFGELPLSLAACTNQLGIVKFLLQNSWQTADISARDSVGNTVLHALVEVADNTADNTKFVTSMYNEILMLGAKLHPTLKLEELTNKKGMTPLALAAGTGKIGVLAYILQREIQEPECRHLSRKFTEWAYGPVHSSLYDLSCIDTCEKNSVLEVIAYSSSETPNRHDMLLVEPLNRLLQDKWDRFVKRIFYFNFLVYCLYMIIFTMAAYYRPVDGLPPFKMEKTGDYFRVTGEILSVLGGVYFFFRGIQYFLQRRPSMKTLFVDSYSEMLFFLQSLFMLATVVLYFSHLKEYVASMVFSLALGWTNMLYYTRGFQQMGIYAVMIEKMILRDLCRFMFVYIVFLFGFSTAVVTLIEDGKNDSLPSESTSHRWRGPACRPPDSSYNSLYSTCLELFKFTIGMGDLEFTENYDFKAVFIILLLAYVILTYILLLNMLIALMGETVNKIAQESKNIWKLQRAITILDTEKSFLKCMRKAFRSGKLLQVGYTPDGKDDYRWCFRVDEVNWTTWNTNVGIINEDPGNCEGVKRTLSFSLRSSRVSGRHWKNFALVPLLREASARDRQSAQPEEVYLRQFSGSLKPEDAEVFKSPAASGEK
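Fluo-8 calcium influx in TRPV1-expressing cells, kinetic read (ex 480/em 520 nm). Compound added and read 3 min for agonist activity, followed by capsaicin at EC20 final and 2 min further read for enhancement.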
gsp ag – gsp mutant agonism; hit rate 0.13% among 340,000; gsp mutant cells, cAMP HTRF, 30 min; control for the full effect not named in the record; Potency, µM (top dose mostly 76.9 µM), inactives show at the top dose activation (cAMP increase), usual class: activators; active = well fitted activation curve with a large enough effect; inconclusive = small, poorly fitted or top-dose-only effect, or another doubt; inactive = no such curve, though single readings can be large or run the other way; cell line not stated here;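 further: phosphodiesterase inhibitor Ro 20-1724 added with compounds to block cAMP breakdown; potency means the concentration at half of the fitted maximal effect; nearly all actives have a fitted effect of over 60% in size; about a fifth of the inactives were tested at one dose only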
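Cells in DMEM/10% FBS with G418 were pretreated with compounds in DMSO plus […] (300 uM stock) for 30 min at 37C. cAMP was measured by HTRF (cAMP-d2 plus anti-cAMP antibody-K) after 30 min at room temperature.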
TRPML1 inh – human mucolipin-1 channel inhibition | Q9GZU1 | TRPML1-inducible cells, Ca2+ dye fluorescence, FDSS; hits give low values; inhibition of EC80 agonist-evoked calcium signal | activity change, negative = inhibition, % (no concentration beside the values) | hit rate 0.02% among 390,000 | AID 624415; in the data active means activity change below about -50%; inconclusive means about -30% to -50%; inactive means above about -30%;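 further: stimulus is agonist 54-4 at its EC80 concentration; on the % scale 0 is the no-effect control and ±100 the full control effect; compound concentration not given in the record; the text of the record puts the active cut at -80%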
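Tet-induced TRPML1-DL cells loaded with Ca8 no-wash calcium dye were read kinetically on FDSS. Compound addition was followed by EC80 agonist 54-4 (4 uM final); inhibition was read over 110 s.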
Sfp inh – inhibitors of Bacillus subtilis Sfp phosphopantetheinyl transferase. Q9F4F7. Biochemical Sfp PPTase activity, qHTS. Potency, µM, without a hit: max response, negative = inhibition, hits mostly inhibitors. hit rate 3.5% among 310,000; active means well fitted inhibition curve with a large enough effect; inconclusive means small, poorly fitted or top-dose-only effect, or another doubt; inactive means no such curve, though single readings can be large or run the other way;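 further: the enzyme is Sfp with the accession as filed and its product quenches rhodamine fluorescence; potency means the concentration at half of the fitted maximal effect; 0% = enzyme reaction without inhibitor and -100% = no enzyme wells; top concentration of the series not given in the record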
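Compounds were incubated with enzyme (final 15 nM) for 15 min at room temperature before substrate addition started the reaction. Fluorescence at 525 nm excitation, 598 nm emission was recorded immediately and after 30 minutes.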
ClpP mod – qHTS Assay for Activators of ClpP; ATP-dependent Clp protease proteolytic subunit (Bacillus subtilis (strain 168)), P80244; purified B. subtilis ClpP, FRET peptide cleavage, 20 min; Potency, µM (series often up to 57.5 µM), without a hit: at the top dose activity change, negative = active; hit rate 1.9% among 340,000; active = well fitted falling curve with a large enough effect; inconclusive = small, poorly fitted or top-dose-only effect; inactive = no such curve, though single readings can be large or run the other way; further: potency means the concentration at half of the fitted maximal effect; the source files actives as falling curves though it sought activators and does not explain the sign; nearly all actives have a fitted effect of over 65% in size; many hits overshoot -100%
Target sequence (P80244 whole entry, looked up): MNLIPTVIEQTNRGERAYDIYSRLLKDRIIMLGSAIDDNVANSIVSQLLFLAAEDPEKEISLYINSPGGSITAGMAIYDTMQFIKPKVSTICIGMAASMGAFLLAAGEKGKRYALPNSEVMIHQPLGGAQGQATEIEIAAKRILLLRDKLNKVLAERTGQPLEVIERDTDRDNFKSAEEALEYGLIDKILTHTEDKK
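Purified B. subtilis ClpP, 10 microg/mL final in Tris/HCl pH8 with KCl, BSA, glycerol and Tween-20, cleaved an Abz/nitrotyrosine-quenched decapeptide. Fluorescence (ex 320, em 430) was read at 0 and 20 min at room temperature. Delta was normalized to 5.8 microM ADEP and DMSO/no-enzyme controls.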
gsp antagonist – antagonists of gsp mutant (McCune-Albright syndrome); gsp-mutant cells, cAMP HTRF, 30 min; control for the full effect not named in the record; Potency, µM (titrated, usually from 76.9 µM), for inactives: top-dose activity change, negative = inhibition, hits mostly inhibitors; hit rate 0.4% among 340,000; AID 624288; active = falling curve of any shape with a large fitted effect; inconclusive = falling curve, mostly with a smaller effect; inactive = flat or rising curve; cell line not stated here;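 further: intracellular cAMP measured with PDE inhibitor Ro 20-1724 present during compound exposure; potency means the concentration at half of the fitted maximal effect; on the % scale 0 is the no-effect control and ±100 the full control effect; nearly all actives have a fitted effect of over 65% in size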
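Measurement of cellular cAMP by homogeneous time-resolved fluorescence following a 30 min compound exposure at 37C. The PDE inhibitor […] was present throughout; the assay buffer was DPBS with 0.05% BSA and 0.005% Tween 20.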
* marks the source's active call; other numbers are inactive results; ? = inconclusive; . = not tested or not shown; & = joins results of further samples; [ ] = another dose, or the depositor's remark. Compounds as they come; 4.9% or so of the library scored in one or more.

Compound	Menin MLL FP FL	TRPV1 potentiator	gsp ag	TRPML1 inh	Sfp inh	ClpP mod	gsp antagonist
CCc1cc2c(=O)[nH]c(-c3ccccn3)nc2s1	11	11	-15%	7	-31%	-26%	-8%
Oc1c(C(c2cccc(F)c2)N2CCN(Cc3ccccc3)CC2)sc2ncnn12 (stereo not given)	0.1	17	-29%	2	14%	2.2%	-3%
CC(C)(C)NC(=O)CSc1nc2ccc(NC(=O)CSc3nnnn3Cc3ccccc3)cc2s1	1.8	9	-6%	-3	7%	-0.4%	?
COC(=O)c1ccc(C(=O)OC)c(NC(=S)N2CCCC2)c1	3.6	-4	-6%	5	12%	-3.0%	8%
CCN1C(c2ccc(F)cc2)=CS/C1=C(/C#N)c1nnc2n1-c1ccccc1SC2	.	.	-43%[inhibitor]	2	.	-1.6%	.
Cc1noc(C)c1C(=O)NCCc1c(C)[nH]c2ccccc12	-5.9	5	-24%	8	9%	.	5%
CN1CCc2c(sc(NC(=O)Cc3ccccc3)c2C(N)=O)C1	2.6	-16	?	20	-5%	-5.9%	-4%
CC(=O)NC(Cc1ccccc1C)C(=O)NC1CCN(C(=O)c2cccc(C)c2)CC1 (stereo not given)	2.0	-11	-10%	-11	13%	0.4%	-5%
Cc1ccc(-n2c(C)cc(C(=O)COc3c(CO)cc(F)cc3CO)c2C)cc1C	4.4	3	-62%[inhibitor]	43	-13%	-3.0%	-33%
COc1cccc(NC(=O)c2cc(OC)c(OC)c(OC)c2Br)c1	1.8	29	20%[15.4 µM]	6	-5%	.	-3%
CCOc1ccccc1OCCCC(=O)N(C)CC(=O)Nc1cc(C)ccc1C	-1.4	7	-5%[15.4 µM]	6	15%	0.7%	-17%
NC(=O)c1c(NC(=O)CN2C(=O)CCC2=O)sc2c1CCCCC2	0.1	-7	-110%[inhibitor]	15	?	0.3%	7%
CC(CN1CCCC1)OC(=O)c1ccc(Cl)cc1 (stereo not given)	-0.9	1	28%	-13	11%	-1.2%	-1%
c1ccc(-c2nnnc3ccccc23)cc1	4.7	12	4%[15.4 µM]	-7	-4%	-0.4%	9%
CC(C)C(OC(=O)c1nsc(Cl)c1Cl)C(=O)NC(C)(C)C (stereo not given)	-1.8	2	61%	-25	13%	.	-6%
CCCN1CN(c2ccccc2)C(=S)N(c2ccccc2)C1	0.7	20	21%[15.4 µM]	-12	8%	.	4%
CSc1ncccc1C(=O)OC(C)C(=O)Nc1cccc(S(=O)(=O)N2CCOCC2)c1 (stereo not given)	.	.	-14%	-6	.	0.9%	-22%
CCCCn1c(N)c(N(CCOC)C(=O)Cn2c(=O)cnc3ccccc32)c(=O)[nH]c1=O	.	-11	-50%[inhibitor]	5	.	0.0%	-14%
CCC(C(=O)Nc1ccon1)c1ccccc1 (stereo not given)	-2.2	-33	-50%[inhibitor]	-8	15%	-0.6%	3%
N#Cc1nc(COc2ccc(Br)cc2)oc1NCCN1CCOCC1	0.4	10	-20%	2	3%	-0.8%	3%
CCN(CC1COc2ccccc2O1)C(=S)Nc1ccccc1 (stereo not given)	-2.0	28	?	7	18%	0.1%	-13%
COc1cc(C2N(C)CCC3(OCCO3)C2(C)C)cc(OC)c1OC (stereo not given)	1.4	4	-1%	-27	12%	-5.0%	10%
C=CCN(Cc1ccc(Cl)s1)C(=O)CNC(=O)CNC(=O)c1ccc(Cl)cc1Cl	.	4	3%	-1	.	1.6%	-14%
CC(C(=O)NC1C(=O)N2C(C(=O)O)=C(CSc3nnnn3C)CSC12)n1cc(Cl)cn1 (stereo not given)	-3.3	-9	0%	0	40µM*	.	8%
CC(C)c1nnc(NC(=O)CCC(=O)NCc2ccccc2Cl)s1	.	8	-53%[inhibitor]	7	16%	-0.6%	3%
CCOc1nc(C#N)nc(N2CCCCC2)n1	0.2	12	0%[15.4 µM]	-12	-11%	-2.2%	1%
CC(=O)NCCc1csc(-c2ccccc2)n1	-1.2	-61	-18%	1	10%	-6.6%	1%
CCOC(=O)N1CCN(C(=O)c2csc3c2CCCCC3)CC1	2.1	-2	-22%	-18	-3%	1.3%	-2%
Nc1nn2c(-c3ccccc3)cc(=O)[nH]c2c1N=Nc1ccc(O)cc1	12	?	16%[15.4 µM]	15	?	.	-19%
Cc1ccc(C)n1-c1ccc(C(=O)N/N=C/c2ccncc2)cc1	1.0	2	8%[15.4 µM]	23	10%	.	-28%
O=C(Nc1ccncc1)C1CCN(S(=O)(=O)c2ccccc2C(F)(F)F)CC1	.	-5	-31%[inhibitor]	1	9%	1.3%	-6%
Cc1cccc(Cn2c(=O)c3c(nc4n3CCCN4Cc3ccccc3)n(C)c2=O)c1	1.6	-10	-2%	6	-11%	-14%	?
CCOC(=O)c1c(C)sc2c1N(C(=O)CCl)c1cc(Cl)ccc1S2	0.0	10	-12%	9	-1%	0.4%	-30%
COc1ccc(-c2nc(CN3CCN(Cc4ccccc4)CC3)c(C)o2)cc1	0.3	0	9%	2	6%	-5.8%	-11%
O=C(Nc1ccccc1)[C@@H]1CC=C[C@@H]2CCN(C3CCCCC3)C(=O)[C@@H]21	.	.	-23%	-1	.	-2.6%&-1.6%	1%
CCOc1ccc(N(CC(=O)Nc2ccc(C)cc2)S(=O)(=O)c2c(C)[nH]c(=O)[nH]c2=O)cc1	0.0	13	6%	-4	4%	0.2%	1%
Cc1ccccc1C(=O)Nc1c(C(=O)N2CCCC2)cnn1-c1ccccc1	5.0	4	-10%	-1	12%	-0.3%	-5%
CCC(c1n[nH]c(=S)n1-c1ccccc1)N(C)C (stereo not given)	0.4	-10	-1%	-3	-8%	-2.7%	14%
COCCNC(=O)Cn1ncc2ccsc2c1=O	-0.7	-13	-12%	-2	17%	-2.0%	12%
CCCCc1nnc(NC(=O)CSc2nc(C)cc(=O)[nH]2)s1	4.7	-5	?	-21	10%	-0.5%	-16%
CC(C)c1ccc(OCc2ccc(C(=O)N(C)C)o2)cc1	-8.0	-23	-11%	30	-7%	.	4%
CCOc1ccc(S(=O)(=O)N2CCC(C(=O)NCc3ccncc3)CC2)cc1	-4.2	-2	5%	-20	-7%	-2.1%	6%
O=C(NCCCNC1CCCCC1)c1ccc(/C=N/O)nc1	0.6	-2	0%	5	-6%	0.4%	4%
CCOc1ccc(NC2=CC(=O)C(=O)c3ccccc32)cc1	.	.	4%	7	.	1.3%	-26%
Cc1cc(NC(=O)CSc2n[nH]c(-c3cccs3)n2)no1	-1.4	1	11%	6	-2%	-2.0%	12%
CC(C)N(C(=O)Cc1ccccc1[N+](=O)[O-])C(C)C	1.9	-9	7%[15.4 µM]	-10	25%	.	14%
COCc1nc2sc3c(c2c(=O)[nH]1)CCCC3	-0.8	7	-71%	0	4%	-4.8%	-5%
Cc1ccc(NC(=S)NCc2ccccn2)cc1	0.3	-1	5%	47	-29%	-1.0%	7%
N#C/C(=C(/O)c1cc2ccccc2o1)c1nc2ccccc2s1	5.9	.	-52%[inhibitor]	47	-1%	0.2%	-21%
CN(NC(=O)C(C)(C)C)c1nc(-c2ccccc2)nnc1C(F)(F)F	4.6	-16	-1%	-11	4%	-1.4%	-6%
CCOC(=O)c1c(NC(C)=O)sc2c(OC)c(Br)ccc12	0.0	1	2%	-10	-11%	0.4%	2%
CCN(C(=O)c1cc(Cl)ccc1Cl)C1CCS(=O)(=O)C1 (stereo not given)	.	14	7%[15.4 µM]	1	.	.	4%
CC(C)(C)c1csc(NNC(=O)c2ccc(Cl)cc2)n1	0.3	0	-4%	38	45µM*	.	-4%
CC(Sc1nc2ccccc2c(=O)[nH]1)C(=O)O (stereo not given)	-1.7	6	4%	18	4%	-4.5%	3%
CC(C)OC(=O)C(C#N)c1nc2ccccc2nc1N1CCCC1 (stereo not given)	1.8	0	?	8	8%	-9.3%	-13%
Cc1cc(NC(=O)CN2CCN(c3cccc(Cl)c3)CC2)no1	2.1	-5	-5%[15.4 µM]	18	13%	0.9%	9%

New compounds follow
Compound	Menin MLL FP FL	TRPV1 potentiator	gsp ag	TRPML1 inh	Sfp inh	ClpP mod	gsp antagonist
Nc1nc(N2CCN(c3ccc(F)cc3)CC2)n[nH]1	-2.9	-1	9%[15.4 µM]	6	15%	.	7%
CCOc1ccc(C2C(C#N)=C(N)Oc3cc(C)n(CCN(C)C)c(=O)c32)cc1OCC (stereo not given)	4.5	-9	-25%	-1	11%	-0.4%	11%
Cc1cc(O)ccc1N=Cc1c(C(F)(F)F)[nH][nH]c1=O	-2.0	2	-10%	14	?	0.2%	27%
CN(CC(O)Cn1cnc2c1c(=O)n(C)c(=O)n2C)c1ccccc1 (stereo not given)	2.8	5	19%[15.4 µM]	?	14%	.	-2%
Cc1[nH]n(-c2ccc([N+](=O)[O-])cc2)c(=O)c1/C=N/N1CCOCC1	-0.1	-3	17%[15.4 µM]	1	11%	.	5%
